Biofilm kill mix – clotrimazole potentiators killing C. albicans biofilm, primary screen, 4-compound mixtures | C. albicans biofilm persisters + clotrimazole, fluorescence viability; primary screen in compound mixtures of four per well | inhibition, % at 7.6 µM | actives 0.02% (n = 120,000) | AID 1242, 2008;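 active = inhibition above 30.3% in the primary screen of four-compound pools, then above 30% when the compound was retested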;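 note: compounds exposed to preformed 24 h biofilms for 48 h; the number belongs to the whole pool; some results filed as inactive read as strong as hits; inactives centre near 12; 0% = biofilm with clotrimazole alone and 100% = kill control; retested singly at about 60 µM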
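Assay system: C. albicans biofilms / Medium: RPMI/MOPS medium, pH 7.0 / Schedule: biofilm formation 24 h, compound exposure 48 h, 37 °C / Measured by: Alamar Blue fluorescence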
Starred values were filed as active, the others as inactive.

SMILES	Biofilm kill mix
Cc1ccc(C(=O)O)cc1NC(=S)NC(=O)c1ccc(-c2ccc(Cl)cc2)o1	22
CC1=CN2C(=N)/C(=C/c3cn(CCCOc4ccccc4C)c4ccccc34)C(=O)N=C2S1	14
Cc1cccc(C2C3=C(CCCC3=O)N=C3c4ccccc4C(=O)C32)c1 (stereo unspecified)	28
CC(C)c1cc(C(F)(F)F)n2nc(C(=O)Nc3ccc(-n4cnnn4)cc3)cc2n1	14
CC(C)C(=O)Nc1nnc(SCC(=O)Nc2ccc3c(c2)OCCO3)s1	16
COc1ccc(NC(=O)c2n[nH]c(=O)c3ccccc23)cc1S(=O)(=O)N1CCCCC1	28
S=C(NCc1ccccc1)N1CCn2cccc2C1c1cccnc1 (stereo unspecified)	8
Oc1ccc(Cl)cc1C1=NNC(c2cccs2)C1 (stereo unspecified)	11
COc1ccc(CNC(=S)NCc2ccc(OC)cc2)cc1	10
CSc1sc(-c2ccnc(SCC(=O)C(C)(C)C)n2)c2c1C(=O)CC(C)(C)C2	0
CCOC(=O)C1=C(O)/C(=C\c2ccc(CNS(=O)(=O)c3ccc(Br)cc3)o2)N=C1C	6
CCN(CC)C(=O)Cc1c(OC)ccc2cc(Br)ccc12	9
Cc1ccccc1CS(=O)(=O)Cc1ccc(C(=O)NCCCN2CC(C)CC(C)C2)o1 (stereo unspecified)	17
COC(=O)CCc1sc(Nc2ccccc2)nc1-c1ccc(OC)cc1	16
C=CCNC(=O)c1ccccc1NC(=O)COc1ccccc1	5
COc1ccc(-c2cc(=O)oc3cc(OCC(C)=O)ccc23)cc1	11
CN(C)CCN(C(=O)c1ccc(S(=O)(=O)N(C)C)cc1)c1nc2cc3c(cc2s1)OCCO3	16
COC(=O)C1=C(N)N(c2ccccc2F)C2=C(C(=O)CC(C)(C)C2)C1c1ccc(OC)c(OC)c1 (stereo unspecified)	19
CC(=O)Nc1nc(NC(=O)C(Cl)(Cl)Cl)n(-c2ccccc2)n1	17
COc1ccc2nc(C)cc(Sc3nc4ccccc4s3)c2c1	20
CCN1C(=O)c2cccc3c(Cl)ccc(c23)C1=O	8
COc1ccc(C(=O)CSc2cc(C)nc(SCC(=O)c3ccc(C)cc3)n2)cc1	6
N#Cc1cccnc1Nc1ccc(Cl)cc1	15
CCO[C@H]1OC(C(=O)NCc2nc3ccccc3[nH]2)=C[C@@H](C2CC2)[C@@H]1CCCO	19
Cc1ccc(CNC(=O)CCS(=O)(=O)c2ccc(Br)cc2)cc1	1
O=C(c1cccnc1)N(Cc1ccccc1)C1(C(=O)Nc2ccccc2)CCCCC1	-4
S=c1[nH]nc(-c2cccs2)n1/N=C/c1c(Cl)cccc1Cl	11
O=C(CCCN1C(=O)/C(=C/c2cccs2)SC1=S)Nc1ccccn1	13
COc1ccc2c(=O)c(Oc3ccc(C(=O)O)cc3)c(C(F)(F)F)oc2c1	9
CCN(CC)S(=O)(=O)c1cccc(-c2n[nH]c(=S)n2/N=C/c2ccc(C(=O)OC)cc2)c1	8
N#Cc1ccc(N2C(=O)[C@@H]3C(C(=O)c4ccc5ccccc5n4)=NN[C@@H]3C2=O)cc1	17
O=C(Cn1nc(-c2ccccc2)c2ccccc2c1=O)Nc1cccc(O)c1	5
CCN(C(=O)CSc1nc2cc(C(F)(F)F)ccc2n1Cc1ccccc1)C1CCS(=O)(=O)C1 (stereo unspecified)	9
O=C1C=C(NC2CCCC2)CC(c2ccccc2)C1 (stereo unspecified)	11
CN(/N=C/c1cc(Cl)cc(Cl)c1O)c1c(Cl)cccc1[N+](=O)[O-]	18
CC(C)(C)NC(=O)CSc1nnc(-c2ccncc2)o1	-7
O=c1cc(-c2cccc(Br)c2)oc2cccc(O)c12	15
Cc1ccc(C(=O)/C=C/NCc2ccc(F)cc2)cc1	15
O=C(COC(=O)c1ccc(N2CCOCC2)c([N+](=O)[O-])c1)Nc1ccc2c(c1)OCO2	18
Cc1cc(NC(=O)/C=C/c2cccc(F)c2)n(-c2nc3ccccc3[nH]2)n1	9

Four entries from above, field by field.
N#Cc1ccc(N2C(=O)[C@@H]3C(C(=O)c4ccc5ccccc5n4)=NN[C@@H]3C2=O)cc1
  Biofilm kill mix: 17
O=C(Cn1nc(-c2ccccc2)c2ccccc2c1=O)Nc1cccc(O)c1
  Biofilm kill mix: 5
CCN(C(=O)CSc1nc2cc(C(F)(F)F)ccc2n1Cc1ccccc1)C1CCS(=O)(=O)C1 (stereo unspecified)
  Biofilm kill mix: 9
O=C1C=C(NC2CCCC2)CC(c2ccccc2)C1 (stereo unspecified)
  Biofilm kill mix: 11

Going on with the list:
SMILES	Biofilm kill mix
CN=c1scc(-c2cc(OC)ccc2OC)n1/N=C/c1c(C)[nH]c2ccccc12	46
COc1ccc(N2CCN(S(=O)(=O)c3ccc(Cl)s3)CC2)cc1	23
CC(Sc1nc(N)cc(=O)[nH]1)C(=O)Nc1sc2c(c1C#N)CCCC2 (stereo unspecified)	18
CSc1nc2[nH]ncc2c(=O)[nH]1	18
Cc1ccc(/C=N/NC(=O)CNC(=O)COc2ccccc2)cc1	8
Clc1cccc(C2=NOC(c3nnc(-c4ccccc4)o3)C2)c1 (stereo unspecified)	16
CCNC(=S)N/N=C/c1sc(N2CCCCC2)nc1-c1cccs1	9
CCC(C)(C)NC(=O)CN(C(=O)c1snc(C(N)=O)c1N)c1ccc2nc(C)sc2c1	20
Cc1cc(C)n(C(=O)c2ccc([N+](=O)[O-])cc2N)n1	20
CCOC(=O)c1c(NC(=O)/C=C/C(=O)O)sc(C)c1-c1ccc(Cl)cc1	20
COc1ccccc1C1=NOC(COc2ccc3c(C)cc(=O)oc3c2)C1 (stereo unspecified)	17
CCOC(=O)COc1ccccc1/C=C1\NC(=O)NC1=O	18
CCOC(=O)N/N=C\C=C\c1ccc2c(c1)OCO2	13
O=C(COC(=O)C1CCN(S(=O)(=O)c2cccs2)CC1)Nc1ccccc1Br	8
O=C(COC(=O)/C=C/c1cccs1)NC(=O)Cc1ccccc1	15
O=c1c(O)c(-c2ccc(O)cc2O)oc2cc(O)cc(O)c12	17
CSCC(O)Cn1[nH]c(=O)c2cc(Cl)c(Cl)cc2c1=O (stereo unspecified)	18
NC(=O)c1ccccc1NC(=O)NC1CCCCC1	18
O=C(COC(=O)c1cccnc1Nc1ccccc1F)NC1CC1	18
O=C(CSc1ccccc1)NCc1ccccn1	11

2 neighbouring compounds already listed:
SMILES	Biofilm kill mix
O=C(COC(=O)c1cccnc1Nc1ccccc1F)NC1CC1	18
O=C(CSc1ccccc1)NCc1ccccn1	11

(listing goes on)
SMILES	Biofilm kill mix
O=C(CC1SC(=Nc2ccccc2)N(CCc2ccccn2)C1=O)Nc1ccc(F)cc1 (stereo unspecified)	15
Cc1cc([N+](=O)[O-])nn1CC(=O)Nc1c(C)n(C)n(-c2ccccc2)c1=O	22
N#C/C(=C\c1cccc([N+](=O)[O-])c1)c1nnc2n1CCCCC2	10
COc1cc(CNc2ccc(CNc3ncn[nH]3)cc2)cc(Cl)c1OCc1ccccc1	23
N#Cc1c2c(c(Nc3ccc(O)cc3)n3c1nc1ccccc13)CCC2	16
O=C(COC(=O)c1ccc(F)cc1F)Nc1ncccn1	21
c1ccc2c(-c3nn[nH]n3)cccc2c1	16
Cc1cccc(N2C(=O)CC(Sc3ccccc3C(=O)O)C2=O)c1 (stereo unspecified)	20
O=C(CC(c1ccccc1)c1cc(Br)ccc1O)N1CCCC1 (stereo unspecified)	11
O=C(NC(=S)NCCN1CCOCC1)c1ccccc1	9
Clc1cc(-c2ccc(/C=N/n3cnnc3)o2)ccc1Br	12
COc1ccc(C(=O)Cn2c(NCCO)nc3ccccc32)cc1OC	10
O=C(N/N=C1/CC2C=CCC12)c1ccco1 (stereo unspecified)	5
FC(F)(F)c1ccc2c(c1)C1C=CCC1C(c1ccncc1)N2 (stereo unspecified)	9
NNC(=O)C1CC1(c1ccccc1)c1ccccc1 (stereo unspecified)	3
Cc1ccc(S(=O)(=O)N(C)C)cc1NC(=S)NNC(=O)C1CC1	25
Cc1cccc(NC(=O)CCSc2ccccc2)c1C	-3
Nc1ccccc1Nc1cc(-c2cccc(Cl)c2)nn1-c1ccccc1	9
COc1ccc(/C(N)=N/O)c(OC)c1	13
Cc1nnc(Sc2cc(C(=O)NCCCN(C)Cc3ccccc3)c3ccccc3n2)s1	20
CN(C)/C=C/c1onc(-c2ccccc2Cl)c1C#N	10
CC(C)C1OC(c2cccc(NC(=O)c3cccs3)c2)OCC1(C)C (stereo unspecified)	0
CC(C)(C)OC(=O)N[C@@H](Cc1ccccc1)C(=O)NCC1CCC(C(=O)O)CC1 (stereo partly specified)	14
COCCCNC(=O)/C=C/c1ccc(OCc2c(F)cccc2Cl)cc1	17
CC(=O)Oc1ccc2c(=O)c(-c3ccccc3)c(C)oc2c1	22
Cc1ccc(NC(=S)N/N=C/c2c(C)[nH]c3ccccc23)cc1	-9
Cc1nonc1C1CCCN1Cc1nc(-c2ccc(F)cc2F)oc1C (stereo unspecified)	15
Cc1ccc(C)c(-n2c(-c3ccc(Br)cc3)csc2=NC(=O)c2ccccc2F)c1	10
CCN(CC)C(=S)Oc1ccc(Cl)cc1Cl	14
O=S(=O)(c1ccccc1)N1CCC2(CC1)CO2	0
Cc1ccc(NC(=O)NCC2CCN(Cc3cccc(Cl)c3)CC2)cc1Cl	5
c1ccc(C2=NNC(c3ccco3)=Nc3ccccc32)cc1	24
Cc1onc(-c2ccccc2)c1C(=O)NC(=S)NNC(=O)c1ccc(O)cc1	17
Cc1ccc(-c2csc(NC(=O)Cn3[nH]c(=O)c4ccccc4c3=O)n2)cc1	0
O=C(C1=C[C@@H](c2ccc(Br)cc2)C[C@@H](OCc2ccc(CO)cc2)O1)N1CCN(Cc2ccccc2)CC1	14
Cc1ccc(CN(C)C(=O)c2cc(COc3ccc(F)cc3Cl)on2)o1	-6
CS(=O)(=O)c1ccc(C(=O)NC2CCCc3ccccc32)cc1 (stereo unspecified)	4
Cc1cc(C)c(C(=O)C[n+]2cccc(C(N)=O)c2)c(C)c1	10
Cc1ccc(N(CC(=O)NCc2ccc(F)cc2)C(=O)c2csnn2)c(C)c1	8
O=C(C1=C(O)C(=O)N(CCCN2CCOCC2)C1c1ccncc1)c1cc2ccccc2o1 (stereo unspecified)	25

Shown as labelled records: entries from further up
COc1ccc2c(=O)c(Oc3ccc(C(=O)O)cc3)c(C(F)(F)F)oc2c1
  Biofilm kill mix: 9
CCN(CC)S(=O)(=O)c1cccc(-c2n[nH]c(=S)n2/N=C/c2ccc(C(=O)OC)cc2)c1
  Biofilm kill mix: 8
N#Cc1ccc(N2C(=O)[C@@H]3C(C(=O)c4ccc5ccccc5n4)=NN[C@@H]3C2=O)cc1
  Biofilm kill mix: 17
O=C(Cn1nc(-c2ccccc2)c2ccccc2c1=O)Nc1cccc(O)c1
  Biofilm kill mix: 5

The main list resumes; the five compounds before the break are reprinted first.
SMILES	Biofilm kill mix
Cc1ccc(CN(C)C(=O)c2cc(COc3ccc(F)cc3Cl)on2)o1	-6
CS(=O)(=O)c1ccc(C(=O)NC2CCCc3ccccc32)cc1 (stereo unspecified)	4
Cc1cc(C)c(C(=O)C[n+]2cccc(C(N)=O)c2)c(C)c1	10
Cc1ccc(N(CC(=O)NCc2ccc(F)cc2)C(=O)c2csnn2)c(C)c1	8
O=C(C1=C(O)C(=O)N(CCCN2CCOCC2)C1c1ccncc1)c1cc2ccccc2o1 (stereo unspecified)	25
COc1ccc(C(=O)C(C)OC(=O)c2cccc(S(=O)(=O)Nc3cc(Cl)c(OC)cc3OC)c2)cc1 (stereo unspecified)	-18
CCCC[C@@H]1C[C@H]1[C@@H](NC(=O)c1cccs1)c1ccc(Cl)cc1	8
COc1ccc2cc(S(=O)(=O)N3CCCCCC3)ccc2c1	-1
COc1ccccc1C1c2[nH]c3ccccc3c2CCN1Cc1cnc(C)s1 (stereo unspecified)	11
O=C(NCc1ccc(F)cc1)C1(c2cccs2)CCOCC1	0
Cc1ccc(C(=O)N/N=C2\SCC(=O)N2c2cc(C)ccc2C)cc1	18
COc1ccc(NC(=S)N/C(=N/S(=O)(=O)c2ccc(C)cc2)c2ccccc2)cc1	11
CCn1nc(C)c(CN2CCN(Cc3ccc(OC)c(C)c3C)C(CCO)C2)c1C (stereo unspecified)	16
Cc1c(C(=O)Nc2ccc(S(N)(=O)=O)cc2)oc2ccc(Cl)cc12	3
CCOc1ccc(Oc2ccc(Cl)cc2NC(=O)CCNC(C)=O)cc1	13
O=C(CN1c2ccccc2Sc2ccccc21)NNC(=O)Nc1cccc(Cl)c1	15
COc1cc(O)c(C(CCN2CCN(c3ccccc3)CC2)c2cc(OC)c(OC)c(OC)c2)c(OC)c1 (stereo unspecified)	7
CC(=O)N1CCN(S(=O)(=O)c2ccc(F)c(Cl)c2)CC1	8
Nc1ncncc1-c1ccc2ccccc2c1	21
Fc1ccccc1/C=N/n1cc(-c2ccccc2)[nH]c1=S	14
CCOC(=O)/C=c1\s/c(=C\c2ccc(C#N)cc2)c(=O)n1CC(=O)Nc1cccc(C)c1C	9
CCn1nc(NC(=O)C2CCCO2)c2cc3cc(C)ccc3nc21 (stereo unspecified)	-4
O=C(O)c1cn(C2CC2)c2cc(N3CCN(S(=O)(=O)c4ccc5c(c4)OCCO5)CC3)c(F)cc2c1=O	15
CSC1=NC2(CCCCC2)CC12C=CC(=O)C=C2	12
O=C(NC(=S)N1CCN(c2ccc(O)cc2)CC1)c1cccs1	9
COc1cc(OC)cc(C(=O)NCC(=O)OCC(=O)Nc2ccc3c(c2)OCO3)c1	15
O=C(Nc1ccncc1)c1ccc(S(=O)(=O)Nc2ccccc2)cc1	-16
Cc1cccc(-n2cc(-c3ccccc3)c3c(N4CCOCC4)ncnc32)c1	20
Cc1ccc(C(=O)NCC(c2ccc(F)cc2)N2CCOCC2)cc1 (stereo unspecified)	-10
COc1cccc(Cn2cccc(NC(=O)Nc3cccc(C#N)c3)c2=O)c1	2
CCOc1ccc(C(=O)NC2CCN(C(=O)Nc3ccccc3OC)CC2)cc1	14

Compound activity deposited in PubChem BioAssay by PCMD.

An excerpt, so the mix of outcomes need not match the whole.
